# Screening data deposited in PubChem by ICCB-Longwood Screening Facility, Harvard Medical School.
# HCMV UL50-53 inh: inhibitors of HCMV UL50-UL53 interaction, biochemical, HTRF; HCMV UL50-UL53 nuclear egress complex (human cytomegalovirus); normalized percent inhibition; inhibition, % (test concentration not listed); 190,000 compounds, 0.15% hits; AID 1918969, 2023;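 active means both replicates at 50% or more, plus weaker picks with an unusually low signal ratio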;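 further: stock transfer was 100 nL into about 20 µL; 0% = negative control wells and 100% = wells with untagged competitor protein; inactives centre near -12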
# Starred values were filed as active, the others as inactive; & = joins results of further samples. Some of the compounds tested, so the mix of outcomes need not match the whole.
nr	compound	HCMV UL50-53 inh
1	CC(C)OC(=O)CCC/C=C\C[C@@H]1[C@@H](/C=C/C(=O)COc2cccc(C(F)(F)F)c2)[C@H](O)C[C@@H]1O	-20.4&-20.4
2	O=c1oc(-c2cccs2)nc2ccccc12	4.5
3	CCC(CC)(CCC#N)CNCC1(N2CCOCC2)CCCC1	-18.0
4	Cc1cc2ccccc2n1CCNC(=O)C(C)C	4.7
5	Cc1[nH]nc2c1C(CCc1ccccc1)C(C#N)=C(N)O2 (stereo not given)	8.2
6	O=C(Nc1ccsc1C(=O)N1CCOCC1)c1ccccc1	-0.8
7	CN1CCN(Cc2ccc3nonc3c2)CC1CCO (stereo not given)	-59.7&-59.7
8	CCOc1ccc(Cl)cc1S(=O)(=O)N1CC(C)OC(C)C1 (stereo not given)	-3.1
9	O=C(Cn1cnnn1)N1CC(=O)N(C2CCCCC2)CC(OCc2ccccc2)C1 (stereo not given)	-11.8
10	O=C(CSc1nnc(NC(=O)Cc2ccccc2)s1)Nc1ccccc1	-0.3&-21.2
11	O=C(O)C1(O)C[C@H](O)C(O)[C@@H](O)C1 (stereo not given in full)	-16.5
12	COc1ccc(-n2c(SCC(=O)NCCc3ccccc3)nc3c(c2=O)SCC3)cc1	1.8

# Part of the list above in order of number of heavy atoms, ascending:
nr	compound	HCMV UL50-53 inh
7	CN1CCN(Cc2ccc3nonc3c2)CC1CCO (stereo not given)	-59.7&-59.7
3	CCC(CC)(CCC#N)CNCC1(N2CCOCC2)CCCC1	-18.0
9	O=C(Cn1cnnn1)N1CC(=O)N(C2CCCCC2)CC(OCc2ccccc2)C1 (stereo not given)	-11.8

# Going on with the list.
nr	compound	HCMV UL50-53 inh
13	Cc1ccc(C(=O)CSc2nnc(-c3cc(C(C)(C)C)nn3Cc3cccc(C)c3)o2)cc1	-11.2
14	O=c1oc2ccccc2n1CCOc1ccccc1	-5.5&-2.8
15	COc1ccccc1C(=O)N=c1sc2cc(Cl)ccc2n1C	-10.8
16	COc1cc(S(=O)(=O)n2ccc(C)n2)ccc1Cl	1.2
17	CC(C)c1ccc(NC(=O)Cn2cnc3c2c(=O)n(C)c(=O)n3C)cc1	-11.2
18	COc1ccnc(Nc2ccc(C)cc2)n1	6.4
19	COc1ccc(-c2nc(C#N)c(N3CC(C)OC(C)C3)o2)cc1 (stereo not given)	-0.9
20	O=C(O)c1ccc(O)c2ncccc12	-37.1
21	COC(=O)c1sc2ccccc2c1NC(=O)c1ccco1	-43.2
22	CC(O)=C(C#N)C(=O)Nc1ccc(C(F)(F)F)cc1	0.2
23	C[C@]12CC[C@H]3c4ccc(OC(=O)c5ccccc5)cc4CC[C@H]3[C@@H]1CCC2O (stereo not given in full)	-1.7
24	COc1ccc(OC)c(NC(=O)CSc2nccn2-c2cccc(Cl)c2)c1	-14.3

# (more compounds)
nr	compound	HCMV UL50-53 inh
25	COC1=C2C[C@@H](C)C[C@H](OC)[C@H](O)[C@@H](C)/C=C(\C)[C@H](OC(N)=O)[C@@H](OC)/C=C\C=C(/C)C(=O)NC(=CC1=O)C2=O	-86.1
26	COc1ccccc1Oc1ccc(S(=O)(=O)N2CCCC2)cc1	-6.1
27	CO[C@@]1(NC(=O)[C@H](C(=O)O)c2ccc(O)cc2)C(=O)N2C(C(=O)O)=C(CSc3nnnn3C)CO[C@@H]21	-18.5
28	C=CC(=O)Nc1cccc(Oc2nc(Nc3ccc(N4CCN(C)CC4)cc3)ncc2Cl)c1	35.4
29	COc1cccc(S(=O)(=O)NCc2ccco2)c1	-5.3
30	O=C(CSc1nnc(Cc2ccccc2)o1)N1CCCc2ccccc21	-3.5
31	COc1ccc(-c2ncnc3sc(C)c(C)c23)c(OC)c1	-7.5
32	Cc1cccc(-n2cnc3cc(C(=O)NCCN4CCOCC4)ccc32)c1	-2.2
33	Cc1sc2ncnc(Sc3nnc4ccccn34)c2c1C	-3.3
34	C/C(=N\NC(=O)[C@@H]1C(=O)NC[C@H]1c1ccccc1)c1cccc(Br)c1	0.9
35	CCCCn1c(C2CC(=O)N(c3ccccc3)C2)nc2ccccc21 (stereo not given)	5.3&-10.8
36	C=C(C)Cn1c(-c2ccco2)nc2ccccc21	-13.6

# (listing goes on)
nr	compound	HCMV UL50-53 inh
37	N#Cc1ccc(-c2csc(NC(=O)C3CCCCC3)n2)cc1	-20.3
38	OCc1cc(-c2ccccc2Cl)no1	-9.2
39	NC1=NC(=O)C(CC(=O)Nc2ccc(N3CCCCC3)cc2)S1 (stereo not given)	-7.0
40	Cn1c(=NC(=O)c2c(F)cccc2F)sc2cc(S(C)(=O)=O)ccc21	12.1&-7.5
41	NC(=NCC[C@H](N)C(=O)O)NO	7.1&7.1
42	CCN1CCc2c(OC(C)C)cccc2C1=O	-8.4
43	O=C(NC1CCCCC1NC(=O)c1cccs1)c1cccs1 (stereo not given)	1.4
44	Cc1ccccc1S(=O)(=O)Nc1ccccc1	-17.9
45	C=CCN(CC=C)S(=O)(=O)c1ccc(C(=O)N2CCOCC2)cc1	-8.0
46	Cc1cc(C)nc(-c2cnn(CC(=O)Nc3cc(C)nn3-c3ccccn3)c2)n1	-30.1&-30.1
47	Clc1ccc(CCCOCCCN2CCCCC2)cc1	5.1
48	CN1CC(=O)N2CCN(C(=O)NCc3ccccc3)C[C@@H]2C1=O	-12.0

# Next section
nr	compound	HCMV UL50-53 inh
49	Cc1ccc(C(=O)Oc2ccc3c4c(c(=O)oc3c2)CCCC4)cc1	8.0
50	O=C1CCCN2N=C(SCC(=O)N3CCC(Cc4ccccc4)CC3)SC2=N1	-0.1
51	Cc1cc(=O)oc2c(C=O)c(O)ccc12	54.2
52	COC(=O)c1ccc(Oc2ncnc3sc4c(c23)CCCC4)cc1	-1.4
53	CCCCC[C@@H](O)/C=C/[C@H]1C=CC(=O)[C@@H]1CCCCCCC(=O)O	-2.3&-2.3
54	CSC1=NCCN1S(=O)(=O)c1ccc2ccccc2c1	-1.9
55	O=C(CSc1nc2c(c(=O)n1-c1ccccc1)SCC2)Nc1ccc(-c2ccccc2)cn1	-0.2
56	COc1ccc(N=Cc2ccc(-c3ccc(OC)cc3)o2)cc1	-27.9
57	Cc1ccc(Sc2cnc3ccccc3n2)cc1	-14.6
58	COc1ccccc1N1CCN(CCCCNC(=O)c2ccc(-c3ccc(C(C)=O)cc3)cc2)CC1	-12.7
59	COc1cccc(OCC(=O)Nc2ccc(F)cc2)c1	-9.3
60	C=CCN1C(=O)c2oc3ccccc3c(=O)c2C1c1ccc(O)c(OC)c1 (stereo not given)	-2.6

# (continued)
nr	compound	HCMV UL50-53 inh
61	O=C(Nc1c2c(nn1-c1ccc(Cl)cc1)CS(=O)(=O)C2)C1CC1	-13.1
62	CN(C)C(=O)c1cn(-c2ccccc2)nc1-c1cc2ccccc2o1	-5.7
63	O=C(Nc1c2c(nn1-c1ccccc1)CSC2)C1CC1	-19.0
64	O=C(c1ccc2ncsc2c1)N1CCCCC1	13.0
65	COc1ccc(I)cc1S(=O)(=O)NCc1ccccn1	2.2
66	O=C(CCOc1ccccc1)Nc1ccc(O)c(-c2nc3ccccc3s2)c1	14.9
67	C=CCn1c(=NC(=O)/C=C/c2ccccc2)sc2cc(S(N)(=O)=O)ccc21	-0.3
68	CCCC(=O)NCCc1cc2cc(C)c(C)cc2[nH]c1=O	0.5
69	Nc1nc(Cl)nc2c1ncn2C1CC(O)C(CO)O1 (stereo not given)	-13.8&-63.9
70	COc1ccc2c(c1)/C(=C/c1c(O)n(C)c(=O)c3ccccc13)C=N2	-11.0
71	COC(=O)c1ccccc1S(=O)(=O)NC(=O)c1ccccc1	-2.4
72	CCOC(=O)c1csc(NC(=O)c2ccccc2)n1	-14.0

# Continued.
nr	compound	HCMV UL50-53 inh
73	COc1cccc(NC(=O)CSC2=C(C#N)C(c3ccccc3F)C3=C(CCCC3=O)N2)c1 (stereo not given)	-14.2
74	COC(=O)c1ccc(CSc2nc3ccccc3c(=O)[nH]2)cc1	-4.0
75	C=C(C)Cn1c(CCNC(=O)CCC)nc2ccccc21	-20.3
76	CC1(C)CC(NS(=O)(=O)c2ccc(F)cc2)CC(C)(C)N1	-1.3
77	C=CC(=O)Nc1cccc(Oc2cc(Cl)nc3[nH]ccc23)c1	33.8*
78	O=C(COc1ccccc1)N1CCc2ccccc21	-7.7
79	Cc1nc2c(ccc3nc(NC(=O)c4ccco4)sc32)s1	5.1
80	CCC(C)(Oc1ccc(C2(c3ccc(OC(C)(CC)C(=O)O)cc3)CCCCC2)cc1)C(=O)O (stereo not given)	6.3
81	CC(=O)OC1CC2CCC3C(CC[C@@]4(C)C3CC([N+]3(C)CCCCC3)C4OC(C)=O)[C@@]2(C)CC1N1CCCCC1 (stereo not given in full)	-49.6
82	Nc1ncn(C2OC(CO)C(O)C2O)c(=O)n1 (stereo not given)	-20.4
83	O=c1c2ccccc2n2nncc2n1Cc1cccc(F)c1	-6.0
84	NCc1c[nH]c(=S)n1C1CCc2c(F)cc(F)cc2C1 (stereo not given)	-12.3

# Further compounds
nr	compound	HCMV UL50-53 inh
85	CCOc1cc(CC(=O)NC(CC(C)C)c2ccccc2N2CCCCC2)ccc1C(=O)O (stereo not given)	-4.5&-43.4
86	CCOC(=O)C(CCc1ccccc1)NC1CCc2ccccc2N(CC(=O)O)C1=O (stereo not given)	-2.4&-17.2&-70.4
87	CCSc1ccc2c(c1)N(CCCN1CCN(C)CC1)c1ccccc1S2	-21.7
88	CCOC(=O)CSC1=C(C#N)C(C)C2=C(CCCC2=O)N1 (stereo not given)	-8.7
89	CC(Oc1ccc(F)cc1)C(=O)Nc1ccccc1Br (stereo not given)	2.2
90	CCN(CC)CCNC(=O)c1cc(-c2cc(C)cs2)cc(S(=O)(=O)N2CCOCC2)c1	-21.0
91	Cc1ccc(-c2nnc(NC(=O)COc3ccccc3)s2)cc1	-10.3
92	COc1ccc(COc2ccc(Cc3cnc(N)nc3N)cc2OC)cc1	-20.3&-11.6
93	Cc1ccc2c(C(=O)N3CCN(C)C(=O)C3C)cc(-c3cnn(C(C)C)c3)nc2c1 (stereo not given)	-10.5
94	CC1Cc2cc(C(=O)N3CCC(Cn4cc(C5CC5)nn4)CC3)ccc2O1 (stereo not given)	-13.2
95	COc1ccc(C(=O)Oc2ccc3c4c(c(=O)oc3c2)CCCC4)cc1OC	7.4
96	CC(C)(C)NC(=O)c1ccc2ccccc2n1	-5.9

# (next part)
nr	compound	HCMV UL50-53 inh
97	CCCn1cc(-c2ccnc(NC3CCN(Cc4cccnc4)CC3)n2)c(C)n1	37.8&37.8
98	NS(=O)(=O)c1ccc(C(=O)NCCn2cccn2)cc1	-1.1&-1.1
99	CC(C)(C)OC(=O)N1CCC(OCc2nc(-c3ccncc3)no2)CC1	-32.0&-32.0
100	COc1ccc(-c2cc(C)nc(SCC(=O)Nc3ccccc3)n2)cc1	-5.4
101	N#CC1=C(N)OC2=C(C(=O)CCC2)C1c1ccccc1 (stereo not given)	-5.9
102	O=C(c1ccc(OC2(C(=O)O)CCSCC2)cc1)N1CCOCC1	-8.7
103	COc1ccccc1C(=O)Nc1nnc(SCc2cccc(F)c2)s1	0.5
104	CCC(C)Nc1ncnc2c1cnn2Cc1ccc(Cl)cc1 (stereo not given)	-3.4
105	CC1(C)CC(=O)C(C=Nc2ccc(OC(F)(F)F)cc2)=C(O)C1	-4.5
106	CCC(CC)C(=O)N1CCC(n2cc(C(C)(C)O)nn2)CC1	-14.7
107	Cc1cccc(Cn2c(CN3CCN(c4ccc(F)cc4)CC3)nc3c2c(=O)n(C)c(=O)n3C)c1	5.4
108	Cc1cc2cc(CNC(=O)C3CC3)ccc2[nH]1	-17.5

# Next part:
nr	compound	HCMV UL50-53 inh
109	COC(=O)c1c2c(n3ccccc13)C(=O)c1ccccc1C2=O	-43.2
110	NCCNc1ncc(C(N)=O)c(Nc2cccc(C(F)(F)F)c2)n1	-8.7
111	Cc1ccc(-n2nc3c(c2NC(=O)CCC2CCCC2)CSC3)cc1	-7.2
112	CC(C)(CSc1ccccn1)NS(=O)(=O)c1ccc(Cl)cc1	-13.2

# Among those listed so far, these contain an aryl methoxy group:
nr	compound	HCMV UL50-53 inh
12	COc1ccc(-n2c(SCC(=O)NCCc3ccccc3)nc3c(c2=O)SCC3)cc1	1.8
15	COc1ccccc1C(=O)N=c1sc2cc(Cl)ccc2n1C	-10.8
16	COc1cc(S(=O)(=O)n2ccc(C)n2)ccc1Cl	1.2
18	COc1ccnc(Nc2ccc(C)cc2)n1	6.4
19	COc1ccc(-c2nc(C#N)c(N3CC(C)OC(C)C3)o2)cc1 (stereo not given)	-0.9
24	COc1ccc(OC)c(NC(=O)CSc2nccn2-c2cccc(Cl)c2)c1	-14.3
26	COc1ccccc1Oc1ccc(S(=O)(=O)N2CCCC2)cc1	-6.1
29	COc1cccc(S(=O)(=O)NCc2ccco2)c1	-5.3
31	COc1ccc(-c2ncnc3sc(C)c(C)c23)c(OC)c1	-7.5
56	COc1ccc(N=Cc2ccc(-c3ccc(OC)cc3)o2)cc1	-27.9
58	COc1ccccc1N1CCN(CCCCNC(=O)c2ccc(-c3ccc(C(C)=O)cc3)cc2)CC1	-12.7
59	COc1cccc(OCC(=O)Nc2ccc(F)cc2)c1	-9.3
60	C=CCN1C(=O)c2oc3ccccc3c(=O)c2C1c1ccc(O)c(OC)c1 (stereo not given)	-2.6
65	COc1ccc(I)cc1S(=O)(=O)NCc1ccccn1	2.2
70	COc1ccc2c(c1)/C(=C/c1c(O)n(C)c(=O)c3ccccc13)C=N2	-11.0
73	COc1cccc(NC(=O)CSC2=C(C#N)C(c3ccccc3F)C3=C(CCCC3=O)N2)c1 (stereo not given)	-14.2
92	COc1ccc(COc2ccc(Cc3cnc(N)nc3N)cc2OC)cc1	-20.3&-11.6
95	COc1ccc(C(=O)Oc2ccc3c4c(c(=O)oc3c2)CCCC4)cc1OC	7.4
100	COc1ccc(-c2cc(C)nc(SCC(=O)Nc3ccccc3)n2)cc1	-5.4
103	COc1ccccc1C(=O)Nc1nnc(SCc2cccc(F)c2)s1	0.5
